Screening data (PubChem)
TRPML1 ag = agonists of human TRPML1 channel | Q9GZU1 | TRPML1-expressing cells, Ca2+ dye fluorescence, FDSS; host cell line not named in the record; reference of the full effect not given here | activation, % (test concentration not listed) | hit rate 0.12% among 410,000 | AID 624414; in the data active = activation above about 50%; inconclusive = about 30% to 50%; inactive = below about 30%; also: 0% is about no effect; the text of the record puts the active cut at 80%
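Tet-induced TRPML1-DL cells, 1,500 per well, cultured overnight, were loaded with a no-wash Ca2+ dye for 45–90 min. Calcium fluorescence was recorded on the FDSS for 110 s after compound addition, before the EC80 agonist (4 uM 54-4) was added.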
Six1-Eya2 blk = blocks human Six1 binding to Eya2 | Q15475+O00167 | AlphaScreen GST-Six1/His-Eya2 binding, biochemical; hits give low values; control for the full effect not named in the record | activity change, % (no concentration beside the values) | hit rate 0.56% among 360,000 | AID 651725; in the data active = activity change below about -65%; inconclusive = about -30% to -65%; inactive = above about -30%; also: % is scaled to controls: 0 for no effect and ±100 for the full control effect; compound concentration not given in the record
Target sequence (O00167 whole entry, looked up): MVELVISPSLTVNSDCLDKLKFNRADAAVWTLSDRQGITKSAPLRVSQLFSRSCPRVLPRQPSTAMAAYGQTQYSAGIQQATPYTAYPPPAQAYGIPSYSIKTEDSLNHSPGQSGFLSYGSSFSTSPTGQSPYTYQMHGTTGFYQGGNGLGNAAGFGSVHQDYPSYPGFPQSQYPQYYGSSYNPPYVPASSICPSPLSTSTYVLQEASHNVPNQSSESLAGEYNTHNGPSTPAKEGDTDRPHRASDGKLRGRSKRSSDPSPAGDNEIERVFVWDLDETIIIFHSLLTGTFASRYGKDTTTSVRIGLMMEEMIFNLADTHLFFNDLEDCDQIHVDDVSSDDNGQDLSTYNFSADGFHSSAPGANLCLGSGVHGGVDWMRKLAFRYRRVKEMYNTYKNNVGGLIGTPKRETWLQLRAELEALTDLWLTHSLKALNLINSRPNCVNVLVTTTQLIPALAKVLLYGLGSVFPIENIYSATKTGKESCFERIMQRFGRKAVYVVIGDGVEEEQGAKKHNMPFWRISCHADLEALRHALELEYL
Target sequence (Q15475 whole entry, looked up): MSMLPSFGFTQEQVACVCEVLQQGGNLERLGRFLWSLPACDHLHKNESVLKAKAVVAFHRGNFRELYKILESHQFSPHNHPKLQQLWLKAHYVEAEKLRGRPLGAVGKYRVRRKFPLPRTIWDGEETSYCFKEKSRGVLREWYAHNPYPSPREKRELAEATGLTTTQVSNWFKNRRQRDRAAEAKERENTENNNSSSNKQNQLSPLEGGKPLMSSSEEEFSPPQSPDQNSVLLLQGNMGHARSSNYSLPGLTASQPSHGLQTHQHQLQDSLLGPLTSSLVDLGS
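Compounds are tested against tagged Six1 and Eya2 proteins bridged by glutathione donor and nickel acceptor beads; after a one-hour incubation at 37 °C without light, AlphaScreen emission is recorded.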
TRPV1 PAM = enhances activation of the human vanilloid receptor TRPV1; Q8NER1; TRPV1-expressing cells, Fluo-8 calcium influx, capsaicin EC20 potentiation; host cell line not named in the record; control for the full effect not named in the record; potentiation, % at 8.33 µM; hit rate 0.02% among 320,000; active means potentiation above 80%; inconclusive means 30% to 80%; inactive means below 30%; also: 0% is about no effect
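Cells expressing TRPV1 were dye-loaded with Fluo-8 and read kinetically: 10 s baseline, 3 min after compound (agonist portion), then 2 min after EC20 capsaicin (allosteric enhancer portion). Calcium-bound dye fluorescence at 480/520 nm.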
TRPML1 blocker = blocks the human TRPML1 channel. TRPML1-inducible cells, Ca2+ dye fluorescence, FDSS; hits give low values; inhibition of EC80 agonist-evoked calcium signal. Q9GZU1. activity change, negative = inhibition, % (concentration not given with the values). hit rate 0.02% among 390,000; in the data active means activity change below about -50%; inconclusive means about -30% to -50%; inactive means above about -30%;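 also: stimulus is agonist 54-4 at its EC80 concentration; % is scaled to controls: 0 for no effect and ±100 for the full control effect; compound concentration not given in the record; the text of the record puts the active cut at -80%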
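Calcium fluorescence in TRPML1-DL cells induced overnight with Tet: a 110 s read after compound pin addition, then a 110 s antagonist read after challenge with 54-4 at 4 uM final (EC80).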
D2 PAM = potentiates the human D2 dopamine receptor allosterically | DiscoveRx D2 beta-arrestin cells, luminescence, 90 min; 100% = 57 uM dopamine signal | P14416 | hit rate 0.23% among 360,000 | potentiation, % (test concentration not listed); active = potentiation of 50% or more; inconclusive = 30% to 50%; inactive = 30% or less;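 also: compound concentration not given in the record; tested on top of an EC20 dose of dopamine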
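PathHunter D2 cells, attached overnight at 37 deg C, received compound in DMSO plus dopamine at EC20 (50 nM final) for 90 min at 37 deg C. Beta-arrestin recruitment was read as luminescence after 1 h with detection reagent at ambient temperature.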
CtBP-E1A blk = inhibitors of CtBP/E1A interaction; AlphaScreen GST-E1A/His-CtBP binding, 1536-well; hits give low values; control for the full effect not named in the record; activity change, % (test concentration not listed); hit rate 0.49% among 340,000; in the data active means activity change below about -65%; inconclusive means about -30% to -65%; inactive means above about -30%; also: % is scaled to controls: 0 for no effect and ±100 for the full control effect; compound concentration not given in the record
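In 5 uL wells, 23 nL compound meets equimolar GST-E1A and His-CtBP (5X stock 125 nM each) for 2 h, 37 °C. Beads (5X, 50 ug/mL) then 1 h, 37 °C, dark.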
Active calls of the source: *; ? = inconclusive; . = no result given. This is a random part of the collection. Share with any hit: about 0.95%.

#1 Cc1c2c([n+]3n1CCC3)CC(C)(C)CC2=O
#2 CC(SCC(=O)Nc1ccc(S(=O)(=O)N2CCCCC2)cc1)C(=O)O (stereo unspecified)
#3 CC1=C(C(=O)OCc2ccccc2)C(c2ccc(Br)cc2)NC(=O)N1CCCC(=O)O (stereo unspecified)
#4 CN(CC(=O)Nc1ccc(F)cc1)C(=O)COC(=O)CCN1C(=O)C2CC=CCC2C1=O (stereo unspecified)
#5 COc1cccc(COC(=O)C2CCN(S(=O)(=O)c3ccc(Cl)cc3)CC2)c1OC
#6 Cc1cc(NC(=O)CCCC(=O)N(c2ccccc2)C(C(=O)NC2CCCCC2)c2cccs2)no1 (stereo unspecified)
screen / no.	1	2	3	4	5	6
TRPML1 blocker	-4	-5	1	8	22	4
CtBP-E1A blk	12	4	0	3	-5	-3
TRPML1 ag	0.0	0.8	-0.7	0.0	5.0	-0.1
D2 PAM	-8	-5	-1	-8	-3	-13
Six1-Eya2 blk	-1	-3	-5	2	10	-1
TRPV1 PAM	0	-6	28	0	-4	1

#7 O=[N+]([O-])c1ccc(NN=C(Oc2ccccc2)c2ccc([N+](=O)[O-])cc2)cc1
#8 COc1ccc(CNS(=O)(=O)CCNC(=O)c2ccccc2)cc1
#9 CCCn1c(C)cc(C(=O)CSc2nc3ccccc3c(=O)n2Cc2ccco2)c1C
#10 O=C(Nc1cc([N+](=O)[O-])ccc1Cl)C(Sc1ccccc1)c1ccccc1 (stereo unspecified)
#11 CCOc1ccccc1C(=O)Nc1ccc(-n2nncc2C(C)(C)C)cc1
#12 CS(=O)(=O)c1ccc(-c2nnn(CC(N)=O)n2)cc1
screen / no.	7	8	9	10	11	12
TRPML1 blocker	-22	-10	-16	-12	0	20
CtBP-E1A blk	0	-3	1	-4	3	11
TRPML1 ag	4.4	0.6	0.9	0.3	-1.4	-0.1
D2 PAM	-2	-37	-9	-10	4	6
Six1-Eya2 blk	3	-5	4	-19	0	13
TRPV1 PAM	.	2	4	30	?	-6

#13 Cc1ccccc1OCC(=O)OCC(=O)c1c[nH]c2ccccc12
#14 O=C1COc2cccnc2N1
#15 CCOC(=O)C1=C(COC(=O)[C@H](C)NS(=O)(=O)c2ccccc2F)NC(=O)NC1C (stereo partly specified)
#16 CCc1ccc(NS(=O)(=O)c2cc3c4c(c2)CCN4C(=O)CC3)cc1
#17 NC(=O)CC(NC(=O)c1ccc(Br)cc1)c1ccc(NC2CCCCC2)c([N+](=O)[O-])c1 (stereo unspecified)
#18 CC(=O)c1cccc(S(=O)(=O)N2CCC(C(=O)NC3CCCC3)CC2)c1
screen / no.	13	14	15	16	17	18
TRPML1 blocker	18	3	4	21	21	4
CtBP-E1A blk	5	7	-2	-1	3	3
TRPML1 ag	5.8	0.0	-0.5	0.0	-0.6	-0.2
D2 PAM	-1	-12	-7	17	-7	-6
Six1-Eya2 blk	5	-2	1	1	1	-6
TRPV1 PAM	-2	?	-4	5	18	1

#19 CCCCCNC(=O)CC1Nc2c3ccccc3nc(=S)n2C1=O (stereo unspecified)
#20 CC1CCCC(C)N1C(=O)COC(=O)CNC(=O)c1ccccc1F (stereo unspecified)
#21 O=C(C1CC(=O)N(c2ccccc2)C1)N1CCC(c2nc3ccccc3[nH]2)CC1 (stereo unspecified)
#22 COc1ccc(-c2ccc(C(=O)Nc3cccc(F)c3)c3occc23)c(C)c1
#23 COc1cc(C2C3C(=O)N(Cc4ccccc4)C(=O)C3ON2c2ccccc2)cc(OC)c1OC (stereo unspecified)
#24 Cc1csc(NC(=O)c2cccs2)n1
screen / no.	19	20	21	22	23	24
TRPML1 blocker	24	-4	3	.	-8	-7
CtBP-E1A blk	-7	0	-2	-6	0	1
TRPML1 ag	0.5	0.3	0.5	2.3	3.4	-0.7
D2 PAM	-10	-4	-10	-6	-4	19
Six1-Eya2 blk	0	5	5	14	34	-4
TRPV1 PAM	0	14	-15	.	-11	-7

#25 CCC(C)(C(=O)NC1CCCC1)N(Cc1ccco1)C(=O)c1ccc2c(c1)OCO2 (stereo unspecified)
#26 O=C1CSc2ccc(C(=O)NCCC3=CCCCC3)cc2N1
#27 O=C(N/N=C1/CC2C=CCC12)c1cccs1 (stereo unspecified)
#28 CC1CCN(CCOc2cccc(Br)c2)CC1
#29 C[C@H](O)[C@@H]1CN2CCc3c([nH]c4ccccc34)[C@@H]2C[C@@H]1N(C)C(=O)c1ccco1
#30 Cc1cc(C(=O)Nc2ccc3c(c2)OCCO3)co1
screen / no.	25	26	27	28	29	30
TRPML1 blocker	2	12	26	-5	.	43
CtBP-E1A blk	-4	-4	5	3	-5	4
TRPML1 ag	-0.5	-0.4	0.9	-0.8	1.8	-0.7
D2 PAM	0	-13	-10	-17	-1	-7
Six1-Eya2 blk	3	2	0	-6	0	-1
TRPV1 PAM	-3	-3	-4	2	.	25

#31 COc1cc(C)ccc1OCC(=O)OCC(=O)NCC1CCCCC1
#32 COC(=O)c1c(C)oc(C)c1S(=O)(=O)N1CCCCC1
#33 Cc1ccc(NC(=O)NCC(c2ccccc2)N(C)C)cc1 (stereo unspecified)
#34 CCOC(=O)c1ccc(-n2cncn2)nc1
#35 Cc1nc2c(C)cccn2c1/C(O)=C1\C(=O)C(=O)N(CCN(C)C)C1c1ccccc1 (stereo unspecified)
#36 Cn1nc(C(=O)NNC(=O)COc2ccccc2)c2ccccc2c1=O
screen / no.	31	32	33	34	35	36
TRPML1 blocker	-4	-15	6	0	-10	8
CtBP-E1A blk	1	-27	-2	3	5	-14
TRPML1 ag	-0.3	0.1	-0.4	0.1	-0.2	-0.4
D2 PAM	-2	0	-23	17	-13	-16
Six1-Eya2 blk	5	-8	4	5	3	-1
TRPV1 PAM	.	19	-18	24	2	-3

#37 CCCCn1c(=S)[nH]c2ccccc2c1=O
#38 O=C(O)c1cccc2c1-c1ccccc1/C2=N\Nc1ccccc1
#39 CCS(=O)(=O)Nc1ccc(C2=NN(C(=O)c3ccco3)C(c3cccs3)C2)cc1 (stereo unspecified)
#40 CC(C)(C)NC(=O)c1ccc(COc2ccccc2Br)o1
#41 O=S(=O)(c1ccc(F)cc1)N1CCCC1
#42 CCCN1CCC(NC(=O)CC2C(=O)NCCN2Cc2cccc(OC)c2)CC1 (stereo unspecified)
screen / no.	37	38	39	40	41	42
TRPML1 blocker	-4	7	53	-3	3	3
CtBP-E1A blk	-7	-22	1	1	-1	4
TRPML1 ag	-0.5	-0.6	1.3	-1.0	0.5	0.4
D2 PAM	-6	0	28	15	-1	-11
Six1-Eya2 blk	-4	-18	-14	-7	-9	4
TRPV1 PAM	-16	-8	0	0	8	2

#43 CNC(=O)C(=O)NCC1OCCCN1S(=O)(=O)c1ccc(F)cc1C (stereo unspecified)
#44 O=C(CSc1nnc(-c2cccnc2)s1)Nc1ccccc1
#45 O=C(NCCc1ccccc1)c1cnc2ccccn2c1=O
#46 CC(C)c1ccc(N(C(=O)c2csnn2)C(C(=O)NC(C)(C)C)c2cccnc2)cc1 (stereo unspecified)
#47 CC(=O)Nc1cc(-c2ccc(N3CCN(C)CC3)cc2)cn2c(-c3ccccc3)cnc12
#48 NS(=O)(=O)c1ccc(CNC(=S)NC2CCCCC2)cc1
screen / no.	43	44	45	46	47	48
TRPML1 blocker	8	16	-14	-1	.	-5
CtBP-E1A blk	-1	-2	12	.	-30	-11
TRPML1 ag	-0.2	0.0	-0.1	-0.1	1.4	-0.3
D2 PAM	-11	-12	-8	-6	-15	-6
Six1-Eya2 blk	5	-5	0	9	-28	0
TRPV1 PAM	9	13	-17	1	.	-6

From compound 38 up to 48, copied from above:
#38 O=C(O)c1cccc2c1-c1ccccc1/C2=N\Nc1ccccc1
#39 CCS(=O)(=O)Nc1ccc(C2=NN(C(=O)c3ccco3)C(c3cccs3)C2)cc1 (stereo unspecified)
#40 CC(C)(C)NC(=O)c1ccc(COc2ccccc2Br)o1
#41 O=S(=O)(c1ccc(F)cc1)N1CCCC1
#42 CCCN1CCC(NC(=O)CC2C(=O)NCCN2Cc2cccc(OC)c2)CC1 (stereo unspecified)
#43 CNC(=O)C(=O)NCC1OCCCN1S(=O)(=O)c1ccc(F)cc1C (stereo unspecified)
#44 O=C(CSc1nnc(-c2cccnc2)s1)Nc1ccccc1
#45 O=C(NCCc1ccccc1)c1cnc2ccccn2c1=O
screen / no.	38	39	40	41	42	43	44	45
TRPML1 blocker	7	53	-3	3	3	8	16	-14
CtBP-E1A blk	-22	1	1	-1	4	-1	-2	12
TRPML1 ag	-0.6	1.3	-1.0	0.5	0.4	-0.2	0.0	-0.1
D2 PAM	0	28	15	-1	-11	-11	-12	-8
Six1-Eya2 blk	-18	-14	-7	-9	4	5	-5	0
TRPV1 PAM	-8	0	0	8	2	9	13	-17

#46 CC(C)c1ccc(N(C(=O)c2csnn2)C(C(=O)NC(C)(C)C)c2cccnc2)cc1 (stereo unspecified)
#47 CC(=O)Nc1cc(-c2ccc(N3CCN(C)CC3)cc2)cn2c(-c3ccccc3)cnc12
#48 NS(=O)(=O)c1ccc(CNC(=S)NC2CCCCC2)cc1
screen / no.	46	47	48
TRPML1 blocker	-1	.	-5
CtBP-E1A blk	.	-30	-11
TRPML1 ag	-0.1	1.4	-0.3
D2 PAM	-6	-15	-6
Six1-Eya2 blk	9	-28	0
TRPV1 PAM	1	.	-6

(more compounds)
#49 COc1cc(OC)c(C(=O)N(CCc2ccccc2)Cc2ccccc2)cc1OC
#50 Cc1ccc(CN2C(=O)CCC2C(=O)NCc2ccccc2Cl)cc1 (stereo unspecified)
#51 Cc1cc(/C=c2\sc3nc4ccccc4n3c2=O)c(C)n1-c1ccc(C(=O)O)cc1
#52 O=C(Nc1ccccc1)c1ccc2c(c1)CCN2S(=O)(=O)c1ccccc1
#53 O=C(COc1ccc(Cl)cc1)N1CCN(S(=O)(=O)c2ccc(Cl)cc2)CC1
#54 Clc1ccc(C=Cc2ccccn2)cc1
screen / no.	49	50	51	52	53	54
TRPML1 blocker	12	-4	17	1	23	7
CtBP-E1A blk	5	.	-21	.	37	12
TRPML1 ag	0.5	-0.9	0.5	1.8	0.7	2.2
D2 PAM	0	-10	3	-10	-12	-4
Six1-Eya2 blk	-7	7	-1	-6	23	10
TRPV1 PAM	1	-13	-4	-25	-15	.

#55 CC(C)CCn1c(CN2CCN(Cc3ccccc3)CC2)nc2c1c(=O)[nH]c(=O)n2C
#56 OC(CSc1c(Cl)cccc1Cl)CN1CCN(c2ccccc2F)CC1 (stereo unspecified)
#57 O=C(Nc1ccc2nc(-c3ccco3)c(-c3ccco3)nc2c1)NC1CC1
#58 CC(C)C1S/C(=N/N=C/c2ccco2)NC1=O (stereo unspecified)
#59 CCCCN(CC)C(=O)c1cc2cc3ccc(OC)cc3nc2o1
#60 Cc1ccc(S(=O)(=O)N(C)C[C@H]2Oc3cc(C#Cc4ccccc4)ccc3S(=O)(=O)N([C@H](C)CO)C[C@@H]2C)cc1
#61 Cc1ccc(C)c(S(=O)(=O)N(C)C2CCS(=O)(=O)C2)c1 (stereo unspecified)
screen / no.	55	56	57	58	59	60	61
TRPML1 blocker	0	9	4	-8	28	-8	4
CtBP-E1A blk	1	-4	?	0	-23	-5	10
TRPML1 ag	-0.4	4.7	0.1	0.6	3.3	-0.3	0.9
D2 PAM	-14	-11	9	7	-12	2	9
Six1-Eya2 blk	4	-3	-68*	1	-7	-8	-2
TRPV1 PAM	3	3	21	5	4	.	5
